# Assay outcomes (PubChem)
# CBX7 inh – inhibitors of human CBX7 binding to H3K27me3 peptide. O95931. AlphaScreen His6-CBX7 / biotin-H3K27me3 peptide binding; stronger effect = lower value. normalised signal (fraction of DMSO) (concentration not given with the values). 66,000 compounds, 1.1% hits; in the data active = normalised signal below about 0.5;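 also: 100 nL library stock added to about 20 µL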
# Target sequence (O95931 whole entry, looked up): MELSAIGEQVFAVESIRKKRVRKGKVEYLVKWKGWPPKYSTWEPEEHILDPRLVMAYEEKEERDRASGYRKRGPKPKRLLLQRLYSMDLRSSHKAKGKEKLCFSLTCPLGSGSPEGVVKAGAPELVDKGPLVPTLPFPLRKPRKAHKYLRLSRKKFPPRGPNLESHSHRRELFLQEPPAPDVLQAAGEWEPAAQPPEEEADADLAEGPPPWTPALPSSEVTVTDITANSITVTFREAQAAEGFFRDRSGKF
# CBX7 inh z-score – further read-out of CBX7 inh, marked with its call; z-score; measured here: z-score of CBX7 signal; some inactives read as strong as hits; reference of the scale not given here;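 same signal on another scale; lower means less binding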
# An asterisk follows results filed as active; & = joins results of further samples.
SMILES,CBX7 inh,CBX7 inh z-score
CCC1Oc2ccc(C)cc2N(CC(=O)NCc2ccccn2)C1=O (centres undefined),0.63,-4.9
Cc1ccc(CNC(=O)c2ccc3c(c2)N(Cc2ccccc2C)C(=O)c2ccccc2S3)cc1,0.93,-1.9
O=C(NCc1ccccc1)c1ccc2c(c1)C(=O)N(c1ccccn1)C2=O,1.1,1.6
CCN(CC)CCCN(C)C(=O)c1cc2c(s1)-c1c(C)cccc1OC2,1.1,3.7
CCOc1ccc(S(=O)(=O)c2cn(Cc3ccc(OC)cc3)c3ccc(OCC)cc3c2=O)cc1,0.95,-1.8
COc1cc(-c2onc3ccc(Cl)cc23)cc(OC)c1OC,1.1,2.4
Cc1ccc(-c2ccc(=O)n(CC(=O)NCc3ccc(F)cc3)n2)cc1,1,0.48
Cc1ccccc1NC(=O)Nc1sc(NS(=O)(=O)c2ccccc2)nc1C,0.94,-0.07
O=C(Nc1cccc(C(F)(F)F)c1)c1cn(-c2ccc(F)cc2F)c(=O)c2ccccc12,1,0.59
CCc1ccc(CNC(=O)COc2cc(=O)n(CC)c3ccccc23)cc1,0.86,-2.3
COc1ccccc1NC(=O)Cn1cnc2sc(C(=O)Nc3ccc(C)c(F)c3)c(C)c2c1=O,0.76,-2.6
COc1ccc(-n2c(Cc3cc(=O)[nH]c(=O)[nH]3)nnc2SCC(N)=O)cc1,1,1.2
CC1(C)C=c2c(nnc3ncnn23)=C(O)C1,0.0087*,-16*
COc1ccccc1-n1nc(C(=O)Nc2ccccc2C(F)(F)F)c2ccccc2c1=O,1,0.19
CC(C)CCNC(=O)c1csc2c1CCC(C)C2 (centres undefined),1.1,4
CC(C)=C1C2C=CC1C1C(=O)N(c3cccc(Br)c3)C(=O)C21 (centres undefined),0.86,-2.2
O=c1cc(Cc2nnc(SCc3cccc(F)c3)n2-c2ccccc2)[nH]c(=O)[nH]1,0.9,-3.5
CCOC(=O)CNC(=O)C1c2cc(OC)c(OC)cc2C(=O)N(C)C1c1ccccc1F (centres undefined),1.1,2.2
COc1ccc(C2=NOC(C(=O)NCc3ccccc3)C2)cc1 (centres undefined),1,0.66
O=C(c1ccc2c(=O)n3c(nc2c1)CCCCC3)N1CCN(Cc2ccc3c(c2)OCO3)CC1,0.95,-0.063
NC(=O)CSc1nnc2c(n1)[nH]c1ccccc12,1,0.13
CC(C)c1ccc(C(=O)CC2(O)C(=O)Nc3ccc(Br)cc32)cc1 (centres undefined),0.94,-0.26
CCOC(=O)c1cnc2c(OC)cccc2c1Nc1ccc(CC)cc1,1,0.63
Fc1cccc(Nc2nc(-c3ccncc3)nc3ccccc23)c1,1,0.027
O=C(Nc1ncc(Cc2ccc(Br)cc2)s1)c1ccccc1Cl,0.91,-1.9
O=C(Cn1cc(S(=O)(=O)c2ccc(Cl)cc2)c(=O)c2ccccc21)Nc1ccccc1,0.99,-0.23
COc1cc(-n2cnc3cc(C(=O)NCC4CCCO4)ccc32)cc(OC)c1OC (centres undefined),1.1,1.3
O=C(CN1C(=O)CCSc2ccccc21)N1CCN(c2ccccc2)CC1,0.96,-0.82
Cc1cc(Nc2ccccc2F)n2nc(C)nc2n1,1,0.53
O=C(C1CC1)N1CCc2cc(S(=O)(=O)NCCCN3CCN(c4cccc(Cl)c4)CC3)ccc21,0.96,-0.42
COc1ccc(-c2noc(COc3ccc(C)cc3)n2)cc1OC,1,0.87
O=C(NCc1ccc(Cl)cc1)C1CCCN(S(=O)(=O)c2cccnc2)C1 (centres undefined),0.93,-1.3
CCOc1ccc(Nc2cc(C(=O)NCCOC)c3ccccc3n2)cc1,0.96,-0.57
Cc1ccc(NC(=O)c2cc(-c3ccc(C)c(C)c3)nc3c(Cl)cccc23)cc1C,0.84,-1.9
COc1ccc(OC)c2c1CC(C)(C)n1c(-c3ccc(Cl)cc3)nnc1-2,0.88,-1.8
COc1ccc2nc(C)cc(Nc3cc(C)ccc3C)c2c1,0.82&0.7,-2.4&-1.3
Cc1ccnc(NC(=O)C2CCCN(S(=O)(=O)c3c(C)noc3/C=C/c3cccs3)C2)c1 (centres undefined),0.93,-1.9
CCOc1ccc(NC(=O)c2c(NC(=O)c3cccs3)sc3c2CCCCC3)cc1,0.89,-1.4
Cc1ccc2nc(-c3ccncc3)c(NC3CCCC3)n2c1,1.1,0.17
COc1ccccc1N1CCN(C(=O)c2sc3nc(-c4ccccc4)cn3c2C)CC1,0.93,-2.4

# Molecules from the list above that contain an NH in an aromatic ring:
SMILES,CBX7 inh,CBX7 inh z-score
COc1ccc(-n2c(Cc3cc(=O)[nH]c(=O)[nH]3)nnc2SCC(N)=O)cc1,1,1.2
O=c1cc(Cc2nnc(SCc3cccc(F)c3)n2-c2ccccc2)[nH]c(=O)[nH]1,0.9,-3.5
NC(=O)CSc1nnc2c(n1)[nH]c1ccccc12,1,0.13

# Further results
SMILES,CBX7 inh,CBX7 inh z-score
N#Cc1ccc(Cn2c(=O)n(Cc3ccccc3Cl)c(=O)c3cccnc32)cc1,1,0.7
O=C(NCC1CCCO1)c1ccc2c(c1)N(Cc1ccc(F)cc1)CCS2 (centres undefined),0.92,-0.48
O=C(NCCN1C(=O)C2C3C=CC(C3)C2C1=O)Nc1ccccc1 (centres undefined),1,0.28
Cc1nn(Cc2ccc(F)cc2)c(C)c1NC(=O)c1cc(CC(C)C)on1,1.1,0.96
Cc1ccc(C(C)C)c(OCC(O)CN2CCC(C)CC2)c1 (centres undefined),0.93,-2.1
O=C(Nc1ccc(Oc2ccc3nsnc3c2)c(Cl)c1)c1cc(Cl)ccc1O,1.1,1.9
Cn1cnnc1-c1cccc(NS(=O)(=O)c2ccc(F)cc2)c1,1.5,1
Cc1ccc(C)c2[nH]c(=O)c(CCNC(=O)COc3ccc(Cl)cc3)cc12,1,0.67
Cc1cccc(CN2C(=O)c3ccccc3Sc3ccc(C(=O)NCc4cccs4)cc32)c1,0.99,-0.35
O=C(NCCCn1ccnc1)c1nn2c(C(F)(F)F)cc(-c3ccc(Cl)cc3)nc2c1Cl,0.63,-3.6
COc1cccc(-c2nc(SCC(=O)NCC3CCCO3)c(-c3ccc(C)cc3)[nH]2)c1 (centres undefined),0.86,-2.3
CCCN(C(=O)CCc1nc(-c2ccc(OC)cc2)no1)c1ccccc1C,1,1.3
COc1ccc(Cc2nc(-c3ccc(NC(=O)c4cccnc4)cc3)no2)cc1,0.98,-0.19
O=C(NCCCN1CCN(c2ccccc2F)CC1)C1CCCN(S(=O)(=O)c2cnc[nH]2)C1 (centres undefined),0.99,-0.17
Cc1ccc(CNC(=O)Cn2c3c(c(-c4ccccc4Cl)cc2=O)CCC3)cc1,0.68,-4.4
CC(C)OCCCNC(=O)c1cc(Nc2ccc(C(C)C)cc2)nc2ccccc12,1,0.046
CCOC(=O)c1c(NC(=O)CSc2nccn2C)sc2c1CCCC2,0.85,-2.4
CCCN(C(=O)Cn1nc(Cc2cccnc2)c2ccccc2c1=O)c1ccc(CC)cc1,0.93,-2.3
Cc1cc(C)cc(NC(=O)Cn2nnc(-c3ccccc3F)n2)c1,0.94,-1.9
O=C(NCCc1ccccc1)c1c[nH]c2ccc(S(=O)(=O)Nc3ccccc3F)cc2c1=O,0.88,-1.4
CC(C)(CC(=O)OCc1cccc(F)c1)CC1=NS(=O)(=O)c2ccccc2N1,0.92,-0.62
Cc1cccc(Nc2c(-c3cccs3)nc3nc(C)cc(C)n23)c1,1.2,2.3
CCOC(=O)C1CCN(C(=O)c2cc3c(-c4ccccc4F)nn(C)c3s2)CC1,1,0.25
Oc1ccc(Nc2nc(-c3ccc(Cl)cc3)nc3ccccc23)cc1,0.61,-0.52
COc1ccc(NC(=O)C2CCCN(Cc3ccccc3)C2)cc1OCC(C)C (centres undefined),1,0.15
COc1ccc(OC)c(Nc2nc(-c3ccc(F)c(C)c3)cs2)c1,0.69,-6.8
Cc1ccc(-c2nc(C#N)c(N3CCCCC3)o2)cc1,0.89&0.88,-1.4&-1.8
COc1ccc(OC)c(NC(=O)CCc2c(C)nc3ncnn3c2C)c1,1,0.46
COc1ccc(Cc2nnc(Nc3ccccc3)s2)cc1Br,0.96,-1.5
Fc1ccc(-c2nc3cc(C(F)(F)F)cc(Br)c3nc2-c2ccc(F)cc2)cc1,0.93,-0.47
CCOc1ccc(-c2n[nH]c(C)c2Oc2ccc(F)cc2)c(O)c1,0.76,-4.7
Cc1ccnc(N2C(=O)c3ccccc3C2Nc2ccccc2C(F)(F)F)c1 (centres undefined),1,0.42
CCOC(=O)CNC(=O)c1cc2c(n(-c3ccc(Cl)cc3)c1=O)CCCC2=O,0.87,-1.4
Cc1cc(Nc2ccc(OCc3ccccc3)cc2)nc2cc(O)ccc12,1,0.28
CCn1c(C(=O)N2CCC(C(=O)N3CC(C)CC(C)C3)CC2)cc2sccc21 (centres undefined),1,0.028
CC1=Nc2cc(C(=O)NCCc3ccccc3)ccc2Sc2ccccc21,1.1,1.4
COc1ccc(-n2c(Cc3cc(=O)[nH]c(=O)[nH]3)nnc2SCC(=O)NCc2ccccc2)cc1,0.84,-2.4
CCc1ccc(-c2nc(C(=O)NCCc3ccccc3)c(C)o2)cc1,0.9,-0.64
Clc1ccc(-c2csc(N3CCOCC3)n2)c(Cl)c1,0.96&1,-0.18&1.8
COc1ccc(CNc2nc(-c3ccccc3)cc(C(F)(F)F)n2)cc1,1.3,3.1

# For convenience, 3 of the compounds above.
SMILES,CBX7 inh,CBX7 inh z-score
CCc1ccc(-c2nc(C(=O)NCCc3ccccc3)c(C)o2)cc1,0.9,-0.64
Clc1ccc(-c2csc(N3CCOCC3)n2)c(Cl)c1,0.96&1,-0.18&1.8
COc1ccc(CNc2nc(-c3ccccc3)cc(C(F)(F)F)n2)cc1,1.3,3.1

# More entries.
SMILES,CBX7 inh,CBX7 inh z-score
Cc1ccc(S(=O)(=O)N=C(N)Nc2nc(C)c3ccccc3n2)cc1,1.1,0.64
CCOc1ccc(-c2nnc(Nc3ccc(C(=O)N(C)C)cc3)c3ccccc23)cc1,1,0.013
Cc1cccc(C(=O)Nc2c3c(nn2-c2cccc(C)c2C)CSC3)c1,1,0.26
O=C(C1CC1)N1CCc2cc(S(=O)(=O)N3CCCCCC3)ccc21,1,0.81
C=CCc1ccccc1OCC(O)CN1CCN(C(C)=O)CC1 (centres undefined),1.1,0.83
COc1ccc(-c2nc(C#N)c(NCCN(C)C)o2)cc1,1.2,2.3
COc1ccc(Cl)cc1-n1c(CCC(=O)O)ccc1-c1cccs1,0.88,-2.2
Cc1cc(Br)ccc1NC(=O)c1n[nH]c(=O)c2ccccc12,1.1,1.6
CCCOc1ccc(C2C(=O)N(C3CCCCCC3)CC(=O)N2C(C)C)cc1OC (centres undefined),1.2,0.69
Clc1ccc(-c2csc(Nc3ccc(Oc4ccccc4)cc3)n2)cc1,0.54,-16
COc1ccc(C2CC(=O)N(CC(=O)Nc3ccc(C)cc3C)c3ccccc3S2)cc1 (centres undefined),1,-0.061
COc1cccc(-c2nn(C)c3sc(C(=O)NCC4CCN(Cc5cccc(C)c5)CC4)cc23)c1,0.78,-6.1
CN1CCc2c(c3ccccc3n2Cc2ccccc2)C1,0.96,-0.79
CCCCN1CCCc2cc(CN(CCCN3CCOCC3)C(=O)Nc3ccc(CC)cc3)ccc21,0.23*,-15*
CCOc1ccc(NC(=O)CCCOc2cc(=O)n(C)c3ccccc23)cc1,0.9,-1.7
COc1ccc(N2C(=O)c3ccc(C(=O)Nc4cc(OC)ccc4OC)cc3C2=O)cc1,0.99,-0.45
O=C(CNc1ccccc1-c1nc2ccccc2[nH]c1=O)NCCc1ccccc1,1,0.11
COc1ccc(NC(=O)C2(NS(=O)(=O)c3cccc4cccnc34)CCCCC2)cc1,0.71,-3.4
COC(CNC(=O)c1c[nH]c2ccc(S(=O)(=O)N3CCOCC3)cc2c1=O)OC,1.1,1.7
COc1ccc(C)cc1NC(=O)CCc1nc(-c2ccccc2F)no1,1,1.3

# The last four entries of the part before come first, to join the parts:
SMILES,CBX7 inh,CBX7 inh z-score
O=C(CNc1ccccc1-c1nc2ccccc2[nH]c1=O)NCCc1ccccc1,1,0.11
COc1ccc(NC(=O)C2(NS(=O)(=O)c3cccc4cccnc34)CCCCC2)cc1,0.71,-3.4
COC(CNC(=O)c1c[nH]c2ccc(S(=O)(=O)N3CCOCC3)cc2c1=O)OC,1.1,1.7
COc1ccc(C)cc1NC(=O)CCc1nc(-c2ccccc2F)no1,1,1.3
Cc1sc2ncn(CC(=O)Nc3ccc(F)c(Cl)c3)c(=O)c2c1C,1,0.26
O=C(NCCN1CCCCCC1)C1(S(=O)(=O)c2ccc(Cl)cc2)CC1,1,0.93
CCc1cccc(C)c1Nc1c(-c2cccs2)nc2ncccn12,1.1,1.9
CCCNC(=O)c1cnn2c(C)c(Cc3ccccc3)c(C)nc12,1,-0.084
O=C1NCCCC1C(=O)NCCc1c[nH]c2ccc(OCc3ccccc3)cc12 (centres undefined),0.85,-1
CCN(CC)CCNC(=O)c1ccc2c(c1)NC(=O)CS2,1.1,1.5
COCCn1c(=O)[nH]c2cc(C(=O)NCc3ccc4c(c3)OCO4)ccc2c1=O,0.99,-0.29
Cc1ccccc1-c1nc(CSCC(=O)NC2CCCCC2)c(C)o1,1.1,1.3
CCOC(=O)c1c[nH]c2c(C)c3[nH]c(C)c(C)c3cc2c1=O,1,1.3
COC(=O)c1cc2sccc2n1Cc1ccc(C)cc1,1.1,3.1
Cc1ccc(N2C(=O)N(c3ccccc3)C3CS(=O)(=O)CC32)cc1 (centres undefined),0.97,-0.7
O=C(NCc1ccc(Cl)cc1)c1csc2c1CCCC2,1.1,2.4
COc1ccc(Nc2ncc(C(=O)N3CCCCC3)c3ccccc23)cc1,1.1,1.2
NC(=O)C1CCN(Cc2nc3ccccc3c(=O)[nH]2)CC1,0.9,-1.3
O=C(CN1C(=O)CCSc2ccccc21)N1CCc2ccccc21,1.1,0.99
O=C(Nc1ccc(Oc2ccccc2)cc1)c1n[nH]c(=O)c2ccccc12,1.1,0.77
COc1ccc(Nc2cc(C(=O)NCc3ccc(C)cc3)c3ccccc3n2)cc1OC,1,0.23
COc1ccc(-c2nn(C)c3sc(C(=O)N4CCC(C#N)CC4)cc23)cc1OC,0.99,-0.31
Cc1cccc(C)c1NC(=O)CS(=O)(=O)c1nc(-c2ccccc2)cn1-c1cccc(Cl)c1,0.81,-1.9

# Not all compounds are listed (hit frequency here may not be typical).
